# Compound activity (PubChem)
# Mtb growth – Mycobacterium tuberculosis H37Rv growth inhibition, putative kinase inhibitor library, confirmatory dose response (AID 2842). M. tuberculosis H37Rv growth inhibition; higher % means a stronger effect; some inactives read as strong as hits. one-dose inhibition, % at 10 µg/mL; IC90 in µg/mL for titrated hits. hit rate 5.2% among 24,000;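 active means confirmed in a dose series; inconclusive means mostly over 85% at the one dose but not retested; inactive means below 85% or not confirmed; about a fifth of its hits are not listed in these tables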;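 further: bacteria incubated one week before Alamar blue readout; 0% = bacteria only wells and 100% = bacteria with high antibiotic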
# Numbers without * were called inactive; u = inconclusive. The list is partial; count on the stated rates, not on these rows.
Nc1nc2c(s1)CCCC2
  Mtb growth: 17%

COc1ccc(OC)c2[nH]c(=O)c(CCNC(=S)Nc3ccc(C)cc3C)cc12
  Mtb growth: -4%

COc1ccc(/C=C/C(=O)Nc2cccc(Cl)c2)c(OC)c1
  Mtb growth: 59%

O=C(NCC1CCCO1)C(=O)Nc1cc2c3c(c1)CC(=O)N3CCC2 (configuration not stated)
  Mtb growth: -2%

CC(C)C(=O)Nc1ccc(S(=O)(=O)N2CCC(c3nc4ccccc4[nH]3)CC2)cc1
  Mtb growth: 27%

COc1ccccc1Cn1cc2c(-c3ccc(F)cc3)nnc-2c2cc(OC)c(OC)cc21
  Mtb growth: 22µg/mL*

Nc1ncnc(Nc2cccc([N+](=O)[O-])c2)c1[N+](=O)[O-]
  Mtb growth: 3%

Cc1cccc(C(=O)N2CC(=O)Nc3ccc(Cl)cc3C2c2ccccc2)c1 (configuration not stated)
  Mtb growth: 94%

CC(C)(C)c1ccc(C(=O)Oc2cc(N)n(S(=O)(=O)c3ccc(F)cc3)n2)cc1
  Mtb growth: -8%

CN1CCc2c(sc(NC(=O)COc3ccccc3)c2C(N)=O)C1
  Mtb growth: 3%

Cc1sc2nc(SCC(=O)Nc3ccc(S(N)(=O)=O)cc3)[nH]c(=O)c2c1C
  Mtb growth: -16%

Cc1ccc(NC(=O)CSc2c[nH]c3ccccc23)c(C)c1
  Mtb growth: 16%

O=C(NCc1cccnc1)C(=O)c1c[nH]c2ccccc12
  Mtb growth: 5%

CCOC(=O)c1c(C)oc2c1c(C=NCCO)c(O)c1ccccc12
  Mtb growth: -15%

O=C(CSc1nc(-c2ccccc2)ns1)NCc1ccc2c(c1)OCO2
  Mtb growth: -2%

Cc1cccc(C(c2sc3nc(C)nn3c2O)N2CCCC2)c1 (configuration not stated)
  Mtb growth: -1%

CCn1c(SCC(=O)Nc2ccccc2)nc2c(c1=O)SC(C)C2 (configuration not stated)
  Mtb growth: 19%

O=C1CCc2cc(S(=O)(=O)Nc3ccccc3F)cc3c2N1CCC3
  Mtb growth: 4%

Cc1csc2ncc(C(=O)Nc3cccc(Cl)c3)c(=O)n12
  Mtb growth: -5%

COc1cccc(/C=N/Nc2ncnc3nc[nH]c23)c1
  Mtb growth: 9%

O=C(O)CNC(=O)CC1S/C(=N\N=C2/NC(=O)CS2)NC1=O (configuration not stated)
  Mtb growth: -11%

COc1ccccc1NC(=S)NCCc1cc2c(C)ccc(C)c2[nH]c1=O
  Mtb growth: 18%

CCCCOc1ccc(C(=O)Nc2scc3c(C(=O)OCC)nn(-c4ccccc4)c(=O)c23)cc1
  Mtb growth: -6%

O=C(N/N=C\c1cccnc1)c1cc(-c2ccc(Cl)c(Cl)c2)n[nH]1
  Mtb growth: -2%

COc1cccc(-n2c(SC(C)C)nc3c([nH]c4ccccc43)c2=O)c1
  Mtb growth: 76%

CN(C)S(=O)(=O)c1ccc(C(=O)Nc2sc3c(c2C(N)=O)CCN(Cc2ccccc2)C3)cc1
  Mtb growth: 2%

COc1ccc(CNc2nc3c(c(=O)[nH]c(=O)n3C)n2Cc2ccccc2Cl)cc1
  Mtb growth: -6%

Cc1cccc(NS(=O)(=O)c2cc3c4c(c2)CCC(=O)N4CCC3)c1
  Mtb growth: -3%

CC(O)Cn1c(N/N=C/c2cccnc2)nc2c1c(=O)[nH]c(=O)n2C (configuration not stated)
  Mtb growth: -6%

CCOc1ccc2ccccc2c1C(=O)NCC(c1ccco1)N(C)C (configuration not stated)
  Mtb growth: 10%

# Retrieved by structure from above, two records:
CCOC(=O)c1c(C)oc2c1c(C=NCCO)c(O)c1ccccc12
  Mtb growth: -15%

CN1CCc2c(sc(NC(=O)COc3ccccc3)c2C(N)=O)C1
  Mtb growth: 3%

# Arranged by number of heavy atoms (rising): some entries from above
COc1cccc(/C=N/Nc2ncnc3nc[nH]c23)c1
  Mtb growth: 9%

O=C(O)CNC(=O)CC1S/C(=N\N=C2/NC(=O)CS2)NC1=O (configuration not stated)
  Mtb growth: -11%

Cc1cccc(NS(=O)(=O)c2cc3c4c(c2)CCC(=O)N4CCC3)c1
  Mtb growth: -3%

CCOc1ccc2ccccc2c1C(=O)NCC(c1ccco1)N(C)C (configuration not stated)
  Mtb growth: 10%

COc1ccccc1NC(=S)NCCc1cc2c(C)ccc(C)c2[nH]c1=O
  Mtb growth: 18%

# Next results:
COc1cc(-c2nnc(NC(=O)c3ccc4ncsc4c3)o2)cc(OC)c1OC
  Mtb growth: 17%

CCOC(=O)c1nn(-c2ccc(C)cc2)c(=O)c2c(NC(=O)c3cccc([N+](=O)[O-])c3C)scc12
  Mtb growth: -3%

COc1ccc(-c2nnc3n2N=C(c2cccc([N+](=O)[O-])c2)CS3)cc1
  Mtb growth: 2%

Cc1ccc(CN2CCc3nc(SCC(=O)Nc4cccc(C)c4C)[nH]c(=O)c3C2)cc1
  Mtb growth: -2%

CC(C)NC(=O)CSc1nnc(CNC(=O)c2ccc(S(=O)(=O)N(C)C)cc2)o1
  Mtb growth: -2%

COc1ccc(-c2nnc3c4cc(C)ccc4n(Cc4ccccc4F)cc2-3)cc1
  Mtb growth: 23%

COc1ccc(-c2nsc(SCC(=O)NCc3ccc4c(c3)OCO4)n2)cc1
  Mtb growth: 13%

CN1CCN(c2nc3c(c(=O)n(C)c(=O)n3C)n2CCSc2nc3ccccc3o2)CC1
  Mtb growth: 10%

CCS(=O)(=O)c1cccc(C(=O)Nc2nc3c(s2)C(=O)CC(C)(C)C3)c1
  Mtb growth: 3%

COc1ccc2c(c1)c(=O)c(C(=O)c1ccc(F)cc1)cn2CC(=O)Nc1ccc2c(c1)OCO2
  Mtb growth: 0%

CCCCN(C1CCS(=O)(=O)C1)S(C)(=O)=O (configuration not stated)
  Mtb growth: -14%

Cc1cc2cc(CCNC(=O)c3c(-c4ccccc4Cl)noc3C)c(=O)[nH]c2cc1C
  Mtb growth: 11%

O=C(COc1ccccc1)N1CCN(c2ccc(N3CCOCC3)nn2)CC1
  Mtb growth: 0%

Nc1nc(SCC(=O)Nc2ccc(F)cc2F)[nH]c(=O)c1NC(=O)c1ccc(Br)o1
  Mtb growth: -17%

O=c1c2nnn(-c3ccc(Cl)cc3)c2ncn1Cc1cccc(Cl)c1
  Mtb growth: -2%

COC(=O)c1cc(C(=O)OC)cc(-n2c(C)cc(C(=O)CSc3ccccc3)c2C)c1
  Mtb growth: 20%

Cc1ccc(-n2c(SCC(=O)Nc3nc4ccccc4s3)nc3c([nH]c4ccccc43)c2=O)cc1
  Mtb growth: -1%

Cc1ccc(-c2csc3ncnc(-n4nnc5ccccc54)c23)cc1
  Mtb growth: 50%

Cc1ccccc1NC(=O)CSc1nnc(-c2ccncc2)o1
  Mtb growth: -4%

CN(C)CCCN1C(=O)C(=O)/C(=C(/O)c2ccncc2)C1c1ccc(F)cc1 (configuration not stated)
  Mtb growth: -19%

CC(C)CC(=O)Nc1c2c(nn1-c1ccccc1)CS(=O)C2 (configuration not stated)
  Mtb growth: 10%

COC(=O)c1ccc(NC(=O)CSc2nc(-c3ccccc3C)ns2)cc1
  Mtb growth: 0.79µg/mL*

O=C(NNc1ncnc2c1cnn2-c1cccc(Cl)c1)c1ccc(Cl)c(Cl)c1
  Mtb growth: 6%

CCOC(=O)c1[nH]c2ccccc2c1NC(=S)Nc1cccc(Cl)c1C
  Mtb growth: 43%

CC(C)c1nnc(NC(=O)c2c(F)cccc2F)s1
  Mtb growth: -1%

O=C(O)CCN1C(=O)/C(=C/c2ccc(-c3ccc(Br)cc3)o2)SC1=S
  Mtb growth: 1%

CCOC(=O)c1nn(-c2ccccc2)c(=O)c2c(NC(=O)c3ccc(S(=O)(=O)N4CCOCC4)cc3)scc12
  Mtb growth: 4%

CC(C(=O)O)N1C(=O)/C(=C2/C(=O)N(CC(=O)O)c3ccccc32)SC1=S (configuration not stated)
  Mtb growth: -12%

CCOC(=O)N1CCN(C(c2ccc(F)cc2)c2c(O)cc(C)n(Cc3cccnc3)c2=O)CC1 (configuration not stated)
  Mtb growth: 2%

O=C(Nc1nnc(-c2ccc3c(c2)OCCO3)o1)c1ccccc1F
  Mtb growth: 67%

Cc1ccc(S(=O)(=O)Nc2ccc(O)c3ncccc23)cc1
  Mtb growth: -2%

O=C1NC(=Nc2ccccc2)SC1Cc1ccccc1 (configuration not stated)
  Mtb growth: 8%

COc1cccc(Oc2coc3cc(OS(C)(=O)=O)ccc3c2=O)c1
  Mtb growth: -5%

C=C(C)CSc1nc2c(c(=O)[nH]c(=O)n2C)n1Cc1ccccc1
  Mtb growth: 6%

Cn1c(=O)c2[nH]c(NCCN3CCOCC3)nc2n(C)c1=O
  Mtb growth: 5%

CCCSc1nc2c(c(=O)[nH]1)C(c1ccc(F)cc1)C1=C(CCCC1=O)N2 (configuration not stated)
  Mtb growth: 1%

O=C(Cn1c(=O)n(Cc2ccco2)c(=O)c2oc3ccccc3c21)Nc1ccc(Cl)cc1
  Mtb growth: 1%

COc1ccc(NC(=O)c2oc3ccccc3c2NC(=O)c2c(F)cccc2Cl)cc1OC
  Mtb growth: 12%

CC(=O)c1sc(NC(=O)C(C)C)nc1C
  Mtb growth: 3%

CC(C)C(=O)Nc1sc(=S)c2c(c1C#N)CCCC2
  Mtb growth: -10%

COc1cccc(NC(=O)CSc2nc(-c3ccccc3)nc3c2Cc2cccc(OC)c2O3)c1
  Mtb growth: 2%

CC(C)(C)c1ccc(S(=O)(=O)c2cn(CC(=O)Nc3ccccc3)c3ccc(F)cc3c2=O)cc1
  Mtb growth: 30%

Cc1cc(C)c2nc(NC(=O)Nc3cccc(Cl)c3)sc2c1
  Mtb growth: 61%

Cc1ccc(Cn2c(SCC(=O)O)nc3c2c(=O)[nH]c(=O)n3C)cc1
  Mtb growth: 13%

Cc1ccc(S(=O)(=O)CCC(=O)Nc2nnc(-c3cccnc3)o2)cc1
  Mtb growth: 1%

N#Cc1ccc(-c2csc(NC(=O)c3cccc(C(F)(F)F)c3)n2)cc1
  Mtb growth: -5%

CCOc1ccc(C(=O)Nc2nc3c(OCC)cccc3s2)cc1
  Mtb growth: 8%

O=C(NCC1COC2(CCCC2)O1)C(=O)Nc1ccc2c(c1)OCO2 (configuration not stated)
  Mtb growth: -3%

Cc1ccc(C(=O)c2cn(Cc3cccc(F)c3)c3cc4c(cc3c2=O)OCCO4)cc1C
  Mtb growth: 3%

COc1ccc(-c2nnc3ccc(SCC(=O)Nc4cccc(Cl)c4)nn23)cc1
  Mtb growth: 5%

COc1cccc2sc(Nc3nc4ccc(C(C)C)cc4s3)nc12
  Mtb growth: 2.2µg/mL*

CC(=O)c1ccc(-n2c(O)c(C3=c4ccccc4=NC3=O)sc2=S)cc1
  Mtb growth: 0%

Cc1ccc(C(C)C)c(OCC(=O)N=Nc2c(O)n(C)c3ccccc23)c1
  Mtb growth: 51%

NS(=O)(=O)c1ccc2c(c1)C(=NO)c1cc(S(N)(=O)=O)ccc1-2
  Mtb growth: 24%

CC(=O)Oc1cccc(NC(=O)CC2Nc3ccccc3NC2=O)c1 (configuration not stated)
  Mtb growth: 2%

COc1ccc(NC(=O)C2=C(C)NC(=O)NC2c2ccc(Cl)cc2Cl)c(OC)c1 (configuration not stated)
  Mtb growth: 14%

COc1ccc(Cc2nnc(SCc3ccccc3Cl)n(N)c2=O)cc1
  Mtb growth: -2%

O=C(CNC(=O)c1cccs1)N/N=C/c1cccs1
  Mtb growth: -10%

CCC(C)Sc1nc2c(c(=O)[nH]1)C(c1ccc(C)s1)C1=C(CC(C)(C)CC1=O)N2 (configuration not stated)
  Mtb growth: 19%

COCCN1CC2=C(C1=O)C(c1ccccc1)NC(=O)N2 (configuration not stated)
  Mtb growth: -18%

COc1ccc(-c2nc3c(c(SCC(=O)Nc4ccc(C(=O)O)cc4)n2)Cc2ccccc2O3)cc1
  Mtb growth: -5%

Nc1c(C(=O)Nc2cccc(Cl)c2)sc2nc3c(c(-c4ccco4)c12)CCCC3
  Mtb growth: 0%

Clc1ccc(C2=NNC(c3ccc4c(c3)OCO4)C2)cc1Cl (configuration not stated)
  Mtb growth: -1%

O=C(CSc1ccc2nnc(-c3ccccn3)n2n1)Nc1cccc([N+](=O)[O-])c1
  Mtb growth: -9%

CCOC(=O)c1nn(-c2ccc(C(F)(F)F)cc2)c(=O)c2c(NC(=O)c3cccs3)scc12
  Mtb growth: 2%

Cc1cc(C)cc(-n2c(SCC(=O)N3CCC(Cc4ccccc4)CC3)nc3c([nH]c4ccccc43)c2=O)c1
  Mtb growth: 2%

Cc1nc2sc(C(c3ccc([N+](=O)[O-])cc3)N3CCN(C(=O)c4ccco4)CC3)c(O)n2n1 (configuration not stated)
  Mtb growth: -6%

Cc1ccc(-c2csc(NC(=O)c3ccc4c(c3)OCCO4)n2)o1
  Mtb growth: 4%

Brc1ccc(CSc2ncnc3nc[nH]c23)cc1
  Mtb growth: 1%

Cc1cc(NC(=O)/C=C\c2ccccc2)nc2c1c(=O)oc1ccccc12
  Mtb growth: 7%

Cc1ccc2cc(CCNC(=O)CC3CCCCC3)c(=O)[nH]c2c1
  Mtb growth: 2%

Cc1nnc(NC(=O)c2ccc3ccccc3c2)s1
  Mtb growth: 21%

COc1ccccc1NC(=O)Cn1c(C)cc(=O)c2cccc(OC)c21
  Mtb growth: 13%

Cn1c(=O)[nH]c(=O)c2c1nc(N1CCN(Cc3ccccc3Cl)CC1)n2CCc1ccccc1
  Mtb growth: 16%

Brc1ccc2nc(N3CCCCC3)sc2c1
  Mtb growth: -2%

COc1cccc2c(=O)n(CC(=O)Nc3ccc4c(c3)OCO4)ccc12
  Mtb growth: -10%

CCOC(=O)COc1cccc2c(=O)n(CC(=O)Nc3ccc(C)cc3)ccc12
  Mtb growth: -9%

Cc1ccc(S(=O)(=O)NCC(=O)N2CCC(C)CC2)cc1
  Mtb growth: -3%

CCOC(=O)c1c(-c2ccc(C)cc2)csc1NC(=O)c1cccnc1
  Mtb growth: 5%

Cc1ccc(CCNC(=O)C2CCC(Cn3c(=O)[nH]c4ccsc4c3=O)CC2)cc1 (configuration not stated)
  Mtb growth: -19%

COc1cccc2sc(N3CCc4ccccc4C3)nc12
  Mtb growth: u

CC1CCCN(c2nc3c(c(=O)n(C)c(=O)n3C)n2CCSc2nc3ccccc3o2)C1 (configuration not stated)
  Mtb growth: 1%

COc1ccccc1OCC(=O)Nc1c(C(=O)Nc2ccc3c(c2)OCO3)oc2ccccc12
  Mtb growth: -11%
